High-throughput results deposited in PubChem BioAssay by several laboratories.
RGS16-Gao: regulators of human RGS16-Galphao interaction | O15492+P09471 | bead-based flow cytometry RGS16-Galphao binding, fluorescence; actives lie on both sides | 0.38% of 220,000 active | binding response (% of control), % at 10 µM;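 active = below 25% or above 175%, edge rows of some plates excepted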;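 also: Galphao activated by GDP with aluminum fluoride before binding; 100% = wells without compound and 0% = beads without RGS; some results beyond the cut were filed as inactive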
Target sequence (O15492 whole entry, looked up): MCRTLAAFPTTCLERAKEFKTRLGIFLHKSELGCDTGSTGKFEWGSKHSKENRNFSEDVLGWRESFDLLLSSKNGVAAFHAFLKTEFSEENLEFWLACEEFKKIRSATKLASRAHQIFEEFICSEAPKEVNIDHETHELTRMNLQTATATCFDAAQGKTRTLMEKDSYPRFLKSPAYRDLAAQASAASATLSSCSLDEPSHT
Target sequence (P09471 whole entry, looked up): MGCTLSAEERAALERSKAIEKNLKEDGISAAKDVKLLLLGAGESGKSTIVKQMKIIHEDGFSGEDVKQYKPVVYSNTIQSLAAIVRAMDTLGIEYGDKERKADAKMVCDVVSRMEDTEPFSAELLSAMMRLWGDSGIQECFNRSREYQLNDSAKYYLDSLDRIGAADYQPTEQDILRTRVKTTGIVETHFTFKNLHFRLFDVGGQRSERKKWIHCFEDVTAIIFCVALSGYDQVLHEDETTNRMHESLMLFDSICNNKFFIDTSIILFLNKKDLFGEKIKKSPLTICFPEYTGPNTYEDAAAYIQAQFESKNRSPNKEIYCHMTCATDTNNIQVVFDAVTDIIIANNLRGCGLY
HSV augment: increases HSV replication in cells. maximum fold increase. HSV replication augmentation in cells, fold increase. AID 1956. 0.005% of 220,000 active;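 active = peak rise of 1.5-fold or more in the series; inconclusive = self-fluorescent or not available for retest; tested in PC3 cells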;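 also: first round at 10 µM; read as green reporter fluorescence; hits show the peak of a series up to 25 µM; 1 = signal of infected wells without compound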
GALR2 ag: agonists of human galanin receptor 2 (GALR2). O43603. activation, %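 (tested at 5 µM)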. 0.48% of 140,000 active. AID 803. GALR2-expressing cells, agonist activation read-out;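 active = above mean plus 3 SD of all compounds, about 5% in these data, not always enough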;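 also: 0% = vehicle buffer wells and 100% = reference agonist at full effect; tested in CHO reporter cells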
Target sequence (O43603 whole entry, looked up): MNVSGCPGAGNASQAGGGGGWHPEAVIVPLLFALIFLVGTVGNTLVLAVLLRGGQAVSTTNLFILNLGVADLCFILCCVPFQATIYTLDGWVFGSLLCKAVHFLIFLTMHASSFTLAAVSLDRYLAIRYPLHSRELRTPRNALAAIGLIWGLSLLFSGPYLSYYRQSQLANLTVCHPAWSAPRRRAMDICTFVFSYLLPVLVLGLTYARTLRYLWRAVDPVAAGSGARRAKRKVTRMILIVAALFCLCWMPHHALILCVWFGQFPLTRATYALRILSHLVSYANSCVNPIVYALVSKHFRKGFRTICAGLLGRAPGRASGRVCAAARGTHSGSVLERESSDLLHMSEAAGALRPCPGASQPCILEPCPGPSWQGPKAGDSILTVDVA
INS promoter inh: TRM-6 insulin promoter activity inhibition; TRM-6 cells (human fetal islet line), insulin promoter-eGFP reporter, imaging; reporter expression induced with tamoxifen; 0.9% of 130,000 active; inhibition, % at 2 µM;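 active = inhibition above the mean plus 3 SD, with well images judged a real hit on visual review, cut at about 60% in these data, passing the limit was not always enough; inconclusive = inhibition over the cutoff but images rejected on review; inactive = inhibition not above the cutoff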
PKD1 inh: PKD1 (human) kinase inhibition; inhibition, %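 (about 10 µM by stock and volumes)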; Q15139; 0.056% of 200,000 active; AID 797; PKD1 kinase fluorescence polarization assay;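 active = inhibition of 50% or more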;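 also: controls were vehicle for no effect and a reference inhibitor for full effect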
INS promoter inh cell count: also measured in INS promoter inh; calls as there; normalized cell count, %; measured here: cell count, toxicity; reference of the scale not given here;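 cells exposed to compound for 48 h; stained nuclei by imaging scaled within each plate; lower means fewer cells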
HSV augment primary fold: recorded beside HSV augment, whose call it bears; fold increase; compound at 10 µM; measured here: primary screen fold increase 10 uM; tested in PC3 cells;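 GFP signal in the first replicate; 1 = infected wells without compound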
Active calls of the source: *; i = inactive; u = inconclusive; x = not tested or not shown. An unsorted share of the library; about 1.3% have a hit in one of these screens.

nr	SMILES	RGS16-Gao	HSV augment	HSV augment primary fold	GALR2 ag	INS promoter inh	INS promoter inh cell count	PKD1 inh
1	COc1ccccc1-c1nc(SCC(=O)NCC2CCCO2)c2c(=O)n(C)c(=O)n(C)c2n1 (configuration not stated)	104	i	0.95	x	19	116	-3
2	Cc1c(CNCc2cccs2)c(C(=O)O)c(C)n1Cc1ccccc1	103	i	1	-3.4	12	112	11
3	COc1cccc(OC)c1NC(=O)Cc1nn(C)c(=O)c2ccccc12	100	i	0.92	-1.3	x	x	-10
4	Nc1ccc2c(c1)COC2=O	128	i	0.96	x	-33	86	-9
5	Cc1cccc(C)c1NC(=O)NN(C(=O)c1ccccc1)C(C)(C)C	105	i	0.97	0.3	-25	142	-2
6	CCC(=O)Nc1ccc(C(=O)c2ccccc2)cc1	100	i	0.95	-2.6	60	58	2
7	CC1=CC(=C2C(=O)c3ccccc3C2=O)C=C(C)N1Cc1ccco1	98	x	x	1.2	-8	94	17
8	C=CCNC(=O)/C(C#N)=C/c1cn(-c2ccccc2)nc1-c1cccs1	103	i	0.83	13*	-7	154	1
9	Clc1ccc(C2=CC(c3ccco3)n3ncnc3N2)cc1 (configuration not stated)	106	u	x	-1.1	-19	139	-15
10	C=CCOc1c(Br)cc(/C=N/Nc2ccc(C(=O)O)cc2)cc1OCC	108	i	1	1.8	-107	107	0
11	CC(C)(C)NC(=O)C(c1ccco1)N(Cc1ccc(F)cc1)C(=O)c1snc(C(N)=O)c1N (configuration not stated)	98	i	0.87	-1.6	36	87	36
12	CN(CC(=O)Nc1cccc(F)c1)CC(=O)Nc1cccc(S(N)(=O)=O)c1	103	i	0.98	x	x	x	x
13	Cc1ccc(OCC(=O)Nc2c[nH]c(=O)[nH]c2=O)cc1C	102	i	0.96	x	-9	86	-1
14	Cc1cc(/C=C2\Cc3ccccc3C2=O)c(C)n1-c1ccccc1	47	i	1.1	3.4	x	x	-3
15	O=C(O)C1Cc2ccccc2CN1S(=O)(=O)/C=C/c1ccccc1 (configuration not stated)	99	i	0.95	x	x	x	-7
16	CCCOc1ccc(-c2nc(C#N)c(N3CCC(C(N)=O)CC3)o2)cc1	99	i	0.83	-2.8	6	106	-9
17	C/C(CC(=O)Nc1ccc(N(C)C)cc1)=N\NC(=O)c1ccncc1	100	i	0.94	x	-14	114	-2
18	COc1ccccc1-c1cc2nc(C)c(CCC(=O)NC(C)CCc3ccco3)c(C)n2n1 (configuration not stated)	100	i	0.83	-0.5	x	x	-4
19	Cc1nn(-c2ccccc2Cl)c(Cl)c1/C=N/Nc1nc2ccccc2s1	109	i	0.8	0.1	38	88	-4
20	CCc1c(C(=O)N2CCOCC2)csc1C	245	i	1.1	-2.0	-217	36	-1
21	COc1nc(SCC(=O)Nc2ccccc2Cl)nc(N(C)C)n1	98	i	0.79	x	x	x	x
22	N[C@@H](Cc1ccccc1)c1nnc(SC/C=C/c2ccccc2)o1	100	i	0.89	x	x	x	x
23	CN1C(=O)c2ccccc2N(C)C1c1cccs1 (configuration not stated)	96	i	0.91	-0.3	x	x	4
24	O=C(O)Cc1sc(-c2ccc(C(=O)O)cc2)nc1-c1ccccc1	99	i	1	x	x	x	-6
25	CCOC(=O)c1ccc(N2C(=O)c3n[nH]c(C)c3C2c2ccc(OC)cc2)cc1 (configuration not stated)	100	i	0.96	0.8	27	99	-3
26	Cc1nnc2sc(SCc3ccccc3Cl)nn2c1=O	99	i	0.96	x	14	96	-4
27	CCSc1nc(O)cc(=O)n1CC	107	i	1.1	x	50	105	1
28	CCCCOc1ccc(/C(O)=C2/C(=O)C(=O)N(CCCOC)C2c2ccncc2)cc1 (configuration not stated)	108	i	1	-0.8	25	113	-8
29	Fc1ccc(C(Nc2ccccn2)c2c[nH]c3ccccc23)cc1 (configuration not stated)	156	i	0.78	x	-155	57	1
30	O=C(c1ccco1)c1cn[nH]c1-c1ccc(Cl)cc1O	3	i	0.96	-1.3	-42	78	-11
31	COc1ccc(-c2cc(-c3cc(OC)ccc3O)[nH]n2)cc1	149	i	0.98	-3.4	-10	121	4
32	COc1cc(C(C(=O)NC(C)(C)C)N(Cc2ccc3c(c2)OCO3)C(=O)c2cnccn2)cc(OC)c1OC (configuration not stated)	70	i	0.71	-4.0	x	x	-3

4 of the compounds above, with each value named.
17	C/C(CC(=O)Nc1ccc(N(C)C)cc1)=N\NC(=O)c1ccncc1
  RGS16-Gao: 100	HSV augment: i	HSV augment primary fold: 0.94	GALR2 ag: x	INS promoter inh: -14	INS promoter inh cell count: 114	PKD1 inh: -2
18	COc1ccccc1-c1cc2nc(C)c(CCC(=O)NC(C)CCc3ccco3)c(C)n2n1 (configuration not stated)
  RGS16-Gao: 100	HSV augment: i	HSV augment primary fold: 0.83	GALR2 ag: -0.5	INS promoter inh: x	INS promoter inh cell count: x	PKD1 inh: -4
19	Cc1nn(-c2ccccc2Cl)c(Cl)c1/C=N/Nc1nc2ccccc2s1
  RGS16-Gao: 109	HSV augment: i	HSV augment primary fold: 0.8	GALR2 ag: 0.1	INS promoter inh: 38	INS promoter inh cell count: 88	PKD1 inh: -4
20	CCc1c(C(=O)N2CCOCC2)csc1C
  RGS16-Gao: 245	HSV augment: i	HSV augment primary fold: 1.1	GALR2 ag: -2.0	INS promoter inh: -217	INS promoter inh cell count: 36	PKD1 inh: -1

(cont.)
nr	SMILES	RGS16-Gao	HSV augment	HSV augment primary fold	GALR2 ag	INS promoter inh	INS promoter inh cell count	PKD1 inh
33	CCOC(=O)N1CCN(Cc2cn[nH]c2-c2cc3ccccc3o2)CC1	102	i	0.91	x	x	x	1
34	Cc1ccc(Cn2cnc3sc4c(c3c2=O)CCC4)c(C)c1	107	i	0.71	0.6	-431	74	-7
35	Cc1ccccc1N1C(=O)C2C3C=CC(C2C1=O)N(C)C3=O (configuration not stated)	103	i	0.84	-1.5	10	74	4
36	COCCN(Cc1ccccc1)C(=O)c1c(C)nn(-c2ccccc2)c1C	99	i	1.1	x	-71	75	2
37	NC(=O)CSc1nnc(-c2ccncc2)o1	99	i	0.97	x	-21	159	4
38	COC(=O)c1cc(=O)c2c([N+](=O)[O-])ccc(OC)c2o1	94	i	1.1	-1.4	-24	51	-13
39	COc1ccc(Cc2c(O)nc[nH]c2=O)cc1	91	i	0.96	0.6	-2	50	-8
40	Cc1cc(C(=O)OCC(=O)N2C(C)CCCC2C)c(C)o1 (configuration not stated)	102	i	0.87	0.0	33	93	21
41	CCOc1ccccc1CNC(=O)CCCc1cn(C)c2ccccc12	112	x	x	-1.1	-15	90	6
42	C[C@H]1C(=O)N(C)CCN1C(=O)c1ccccc1OC1CCN(S(C)(=O)=O)CC1	101	i	1.1	x	x	x	-5
43	CCCCCCCC(=O)OCC(=O)[C@@]1(O)CC[C@H]2[C@@H]3CCC4=CC(=O)CC[C@]4(C)[C@H]3[C@@H](O)C[C@@]21C	101	i	0.69	-0.4	27	52	4
44	O=c1cc(-c2ccc(O)c(-c3c(O)cc(O)c4c(=O)cc(-c5ccc(O)cc5)oc34)c2)oc2cc(O)cc(O)c12	101	i	1.1	-2.2	-14	114	-13
45	NS(=O)(=O)c1cccc(NC(=O)COC(=O)CCCc2c[nH]c3ccccc23)c1	103	i	0.97	x	x	x	-2
46	Cc1ccc(NC(=O)C2CCCN(C(=O)c3ccc(Cl)cc3)C2)cc1C (configuration not stated)	96	i	0.92	x	x	x	-2
47	CCCCCCC(=O)N1CCCC(c2nc(-c3cccc(OC)c3)no2)C1 (configuration not stated)	101	i	0.9	x	x	x	x
48	FC(F)(F)c1ccc(CN2C[C@@H]3C(c4ccccc4)C4(c5cccnc5)CC3(C4)[C@H]2c2ccccc2)cc1 (some centres not stated)	90	i	0.99	x	x	x	x
49	O=C(CSc1nc2ccccc2c(=O)[nH]1)N1CCCCC1	108	i	0.88	-0.8	x	x	1
50	CC(NC(=O)CCl)c1ccc(Cl)c(Cl)c1 (configuration not stated)	111	i	0.67	-1.4	x	x	-3
51	N=C1SCC(=O)N1c1ncc(Cc2ccccc2Cl)s1	104	i	0.91	x	x	x	-3
52	O=C(NCCc1csc(-c2ccccc2)n1)c1c(F)cccc1F	104	i	0.9	x	-53	70	-2
53	CC(C)(C)CC(=O)NC(=S)NCc1ccccc1	101	i	1.1	x	-21	123	-1
54	COc1ccc(N2C(=O)CCC2=O)cc1	14	i	0.99	-0.4	x	x	3
55	CCOC(=O)N1CCN(CC(O)COc2ccccc2C(C)(C)C)CC1 (configuration not stated)	36	i	0.95	-0.5	42	132	-7
56	CCOC(=O)c1c(NC(=O)c2ccccc2Cl)sc2c1CCc1ccccc1-2	84	i	0.98	-1.7	7	124	-5
57	N#Cc1ccc(OCc2nnc(-c3ccc([N+](=O)[O-])cc3)o2)cc1	97	i	0.99	x	x	x	-4
58	CN(Cc1nc(-c2cccc(Cl)c2)no1)C1CCOCC1	100	i	1.1	x	x	x	-5
59	O=C(O)CCc1nn2c3ccccc3n(CC(=O)O)c2nc1=O	104	i	0.98	x	x	x	-3
60	CC(C)(C)c1ccc(-c2nnc3sc(-c4ccccn4)nn23)cc1	94	i	1.5	-1.6	x	x	0
61	COC(=O)c1ccc(Cn2cc(Cl)cn2)o1	105	i	1.1	x	x	x	x
62	Cc1ccc(S(=O)(=O)N2CCOCC2)cc1C(=O)N1C(=O)c2cccc(N)c2C1=O	101	i	1.1	-0.8	8	97	-1
63	O=C(COc1ccc(Br)cc1)N(CCO)CCO	104	i	0.91	x	x	x	0
64	Cn1c(=S)[nH]c2[nH]c(=O)cnc2c1=O	104	i	1.4	0.5	-24	75	-16
65	Cc1c(Nc2nc3ccccc3nc2NS(=O)(=O)c2cccc(Cl)c2)c(=O)n(-c2ccccc2)n1C	92	i	0.96	-2.3	-43	108	-11
66	COc1ccc(C(=O)COC(=O)c2ccc3ccccc3n2)cc1	-1	i	0.86	-0.9	50	128	-6
67	CCN(CCCNC(=O)C1CCC(=O)N1Cc1ccccc1Cl)c1cccc(C)c1 (configuration not stated)	156	i	0.88	-2.8	-92	112	-1
68	COC(=O)NCC(C)OC(=O)Nc1cccc(Cl)c1 (configuration not stated)	104	i	0.97	0.4	0	122	4
69	COc1ccc(C2C=C(c3ccc(F)cc3)NC(=S)N2)cc1OC (configuration not stated)	95	i	0.82	x	x	x	6
70	COC(=O)c1ccc(CSc2nc3c(cnn3-c3ccc(Cl)cc3)c(=O)[nH]2)o1	101	x	x	-1.1	-50	67	2
71	Cc1ccc(S(=O)(=O)c2nc(-c3ccccc3)oc2NCCCN2CCOCC2)cc1	100	i	0.93	x	x	x	-4
72	O=C1C(=O)N(CCN2CCCCC2)c2ccccc21	106	i	1.1	-2.2	53	68	-11
73	O=C(/C=C/c1ccco1)Nc1cccc(C(=O)Nc2ccccc2C(=O)O)c1	97	i	1.1	x	x	x	x
74	O=C(Nc1ccc2oc(-c3ccncc3)nc2c1)c1ccc(F)cc1	97	i	0.98	x	0	129	-6
75	CCc1cccc(NC(=O)C2CCN(S(=O)(=O)c3cccs3)CC2)c1	98	i	1.2	-1.9	36	99	-6
76	O=C(CN1CCN(c2ccccc2O)CC1)NCCCc1ccccc1	102	i	0.82	x	-40	100	-8
77	O=C(Nc1ccc(-c2nnn(CC(=O)N3CCN(C(=O)c4ccco4)CC3)n2)cc1)c1ccccc1F	101	i	0.94	x	x	x	5
78	Cc1ccccc1C(=O)Nc1ccc(N2CCCCCC2)cc1	39	i	0.74	x	x	x	2
79	CN(Cc1cnccn1)C(=O)CC1C(=O)NCCN1Cc1cccc(Oc2ccccc2)c1 (configuration not stated)	101	i	1	x	x	x	4
80	CCCCNC(=S)NC(=O)c1ccccc1Br	104	i	1	0.2	-97	85	-9
